Screens deposited in PubChem by National Center for Advancing Translational Sciences (NCATS).
PK Bst: modulators of Bacillus stearothermophilus pyruvate kinase. partly purified Bacillus stearothermophilus pyruvate kinase, luminescence ATP production; ribose 5-phosphate activator present at AC10. Potency, µM. 51,000 tested, 1.2% active; in the data active means potency below about 11 µM; inconclusive means mostly about 12 µM to 25 µM; inactive means weaker than that;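 the screen sought inhibitors and activators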;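 also: potency is read from the fitted curve at half-maximal effect; scaled between full activation by ribose 5 phosphate and full inhibition by luteolin; about four in five hits inhibit and the cells do not say which; series up to 57 µM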
YjeE inh: inhibitors of E. coli YjeE (TsaE); purified YjeE, fluorescence polarisation of a bound ADP probe; Potency, µM; 71,000 tested, 0.05% active; AID 605; active = well fitted falling curve; inconclusive = weaker or top-dose-only fall, or a rising curve; inactive = flat or poorly fitted curve;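 also: top concentration of the series not given in the record; excess ADP was the control for the full effect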
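Purified YjeE (10 uM) with BODIPY Texas Red-labeled ADP probe (2 uM); compounds pin-transferred, 15 min at room temperature. Binding inhibition read as decreased fluorescence polarization; ADP titration as control.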
* marks the source's active call; other numbers are inactive results; i = inactive; ? = inconclusive; / = no result given. Only part of the results is shown, so the mix of outcomes need not match the whole.

The first 5 entries (preview)
SMILES | PK Bst | YjeE inh
COc1ccc(C2CC3(CC(C)(C)NC(=O)N3)Oc3cc(O)ccc32)cc1 (stereo not drawn) | >57 | i
O=c1oc2c3c4c(cc2cc1-c1nc2ccccc2[nH]1)CCCN4CCC3 | / | i
CC1CC(C)CN(C(=O)CCCn2c(=S)[nH]c3ccccc3c2=O)C1 (stereo not drawn) | >57 | i
Cc1cc(C)n2nc(C(=O)OCCOc3ccc(F)cc3)nc2n1 | >57 | i
CN(C)C(=O)c1ccc(-c2cc(NCc3cccs3)ncn2)cc1 | / | i

The listing, repeating the preview:
SMILES | PK Bst | YjeE inh
COc1ccc(C2CC3(CC(C)(C)NC(=O)N3)Oc3cc(O)ccc32)cc1 (stereo not drawn) | >57 | i
O=c1oc2c3c4c(cc2cc1-c1nc2ccccc2[nH]1)CCCN4CCC3 | / | i
CC1CC(C)CN(C(=O)CCCn2c(=S)[nH]c3ccccc3c2=O)C1 (stereo not drawn) | >57 | i
Cc1cc(C)n2nc(C(=O)OCCOc3ccc(F)cc3)nc2n1 | >57 | i
CN(C)C(=O)c1ccc(-c2cc(NCc3cccs3)ncn2)cc1 | / | i
CCCn1cc(S(=O)(=O)CC(=O)NC2CCCCC2)c2ccccc21 | >57 | i
CC(C)C[C@@H](CC(=O)N[C@@H](CCC(=O)O)CC(=O)O)NC(=O)[C@@H]1CNCC[C@H]1NC(=O)C[C@H](CCCN)NC(=O)C[C@H](Cc1ccccc1)NC(=O)[C@@H]1CNCC[C@H]1N | / | i
Cc1ccc(NC2SC(=O)N(Cc3cccc(C(=O)O)c3)C2=O)cc1 (stereo not drawn) | >57 | i
CCOc1cc(C(=O)Nc2ncccn2)cc(OCC)c1OCC | >57 | i
CC1CN(Cc2nc3c(c(=O)n(C)c(=O)n3C)n2Cc2cccc(Cl)c2)CC(C)O1 (stereo not drawn) | / | i
COc1ccc(-n2nc(C(=O)NCC(=O)NCc3ccco3)c3ccccc3c2=O)cc1Cl | >57 | i
CCN1CCN(C(=O)Cn2ncc3ccsc3c2=O)CC1 | / | i
COc1c(C)cccc1C(=O)Nc1cc(-c2nn3c(C)nnc3s2)ccc1C | / | i
CCOC(=O)c1ccc(NC(=O)Nc2c(C)nn(C)c2C)cc1 | >57 | i
OC1CCN(C(c2ccc3ncccc3c2)c2nnnn2C2CCCCC2)CC1 (stereo not drawn) | >57 | i
O=C(CCCN1C(=O)c2ccccc2C1=O)Nc1c2c(nc3c1CCC3)CCC2 | >57 | i
CCSc1nnc(NC(=O)C2CCCN(S(=O)(=O)c3cnc[nH]3)C2)s1 (stereo not drawn) | / | i
COCCSc1ccccc1C(=O)NCC1CCCO1 (stereo not drawn) | >57 | i
CN(C)C=NC(=O)/C(C#N)=C1\CCc2ccccc2N1 | / | i
CCN(CC)C(=O)COc1ccc2oc(C)c(C(=O)OC(C)C)c2c1 | / | i
CCC(C(=O)Nc1ccccc1C(=O)N1CCCC1)N1C(=O)c2ccccc2C1=O (stereo not drawn) | >57 | i
CCN(CC)S(=O)(=O)c1ccc(C(=O)Nc2nnc(C(C)C)s2)cc1 | / | i
Cc1ccc(OCC(=O)N2CCN(C(=O)CCC3CCCC3)CC2)cc1 | >57 | i
O=C(O)Cn1cnc2scc(-c3cccs3)c2c1=O | >57 | i
COc1ccc2nc(-n3c(C)ccc3C)sc2c1 | >57 | i

Single records, from the list above. Order of screens: PK Bst | YjeE inh
CCCn1cc(S(=O)(=O)CC(=O)NC2CCCCC2)c2ccccc21 in the list: >57 | i
Cc1cc(C)n2nc(C(=O)OCCOc3ccc(F)cc3)nc2n1 in the list: >57 | i
CN(C)C(=O)c1ccc(-c2cc(NCc3cccs3)ncn2)cc1 in the list: / | i
COc1c(C)cccc1C(=O)Nc1cc(-c2nn3c(C)nnc3s2)ccc1C in the list: / | i
CC1CN(Cc2nc3c(c(=O)n(C)c(=O)n3C)n2Cc2cccc(Cl)c2)CC(C)O1 (stereo not drawn) in the list: / | i

Following part.
SMILES | PK Bst | YjeE inh
COc1ccc(/C(O)=C2\C(=O)C(=O)N(c3cc(C)on3)C2c2cccc(OC)c2OC)cc1C (stereo not drawn) | >26 | /
Cc1ccc(CNC(=O)C2CCCN(c3nc4ccccc4o3)C2)cc1 (stereo not drawn) | / | i
Cc1c(/C=N/n2cnnc2)c2ccccc2n1CCOc1ccc(Cl)cc1 | / | i
COc1ccc(N2CCN(CC(=O)Nc3ccc(-n4cnnn4)cc3)CC2)cc1 | >57 | i
CCOc1ccc(NC(=O)N(C2CCCCC2)C(C)c2ccncc2)cc1 (stereo not drawn) | >57 | i
CC(=O)N1CCC2(CC1)CN(c1cccc(-c3ccccc3)c1)C2 | / | i
CC(=O)Oc1ccc(Oc2ccc(-c3noc(C)n3)cc2)cc1 | >57 | i
COc1ccc(OC)c(-c2cc(C(=O)Nc3cc(C)n(Cc4ccc(Cl)cc4)n3)no2)c1 | >57 | i
Cc1ccc2c(c1)NC(=O)C(CC(=O)NCc1cccnc1)O2 (stereo not drawn) | / | i
O=C(Cn1c(=O)[nH]c2ccsc2c1=O)NC1CCCCC1 | >57 | i
CCCN1CCN(C(=O)c2cccc3c2C(=O)N(CCOC)C3)CC1 | / | i
Cc1ccc(NC(=O)Cn2c(=O)n(CCCCC(=O)NCc3ccco3)c(=O)c3ccccc32)cc1 | >57 | i
COc1ccc(OC)c(NC(=O)CN2CCC(C(=O)c3ccc(C)cc3)CC2)c1 | >57 | i
Cc1ccc(NC(=O)CN2C(=O)COc3ccc(C)cc32)nc1 | >57 | i
O=C(CCCSc1nc2ccccc2s1)NC1=NCCS1 | >57 | i
O=C(Nc1c(C(=O)NCc2ccco2)cnn1-c1ccccc1)c1cccc(F)c1 | / | i
CC(C)N(CCO)C(=O)C(c1ccccc1)c1ccccc1 | >57 | i
O=C(c1ccc(NS(=O)(=O)c2cccc3cccnc23)cc1)N1CCOCC1 | ? | i
COc1ccc(-n2c(Cc3cccn3C)nnc2SCC(=O)NC2CCCC2)cc1 | / | i
CCOC(=O)c1ccc(NC(=O)C(CC)CC)cc1 | / | i
COC(=O)CN1C(=O)COc2ccc(Cl)cc21 | / | i
O=c1cc(N=Nc2ccc(O)cc2)[nH]c(=O)[nH]1 | / | i
O=c1[nH]c(SCc2cccc(Cl)c2)nc2c1CCCC2 | >57 | i
CCOC(=O)Nc1oc2ccccc2c(=O)c1CN1CCOCC1 | >57 | i
CN1C(=S)SC(C)(C)C1/[N+]([O-])=C/c1cccnc1 (stereo not drawn) | >57 | i

Other entries
SMILES | PK Bst | YjeE inh
Cc1cc(NC(=O)c2ccccc2NS(=O)(=O)c2c(C)c(C)cc(C)c2C)no1 | >57 | i
CCOC(=O)N1CCN(C(=O)Cc2cccs2)CC1 | / | i
Cc1ccc(-c2cc(C(=O)NCCCn3ccnc3)c3cc(Br)ccc3n2)o1 | / | i
Brc1ccccc1CN1CCC(N2CCCCC2)CC1 | / | i
N#Cc1c(NCCO)nc(NCc2ccccc2)c2c1CCN(Cc1ccccc1)C2 | >57 | i
Cc1cnc(NC(=O)CSc2nnc(-c3cccs3)n2C)s1 | >57 | i
CC(=O)N1CC=CC1(CC(C)C)C(=O)NCc1ccc(C)o1 (stereo not drawn) | / | i
Cc1cc(C)n2nc(C(=O)Nc3cccnc3)nc2n1 | >57 | i
Cc1ccc(C(=O)N2CCN(c3ccccc3)CC2)cc1C | / | i
Cc1cc(C)c(C#N)c(=N)o1 | >57 | i
O=S(=O)(Nc1ccc(N2CCOCC2)cc1)c1cccs1 | >57 | i
CS(=O)(=O)N(CC(=O)Nc1ccc2c(c1)OCCO2)c1ccc2c(c1)OCO2 | >57 | i
COc1cccc(NC(=O)Nc2nnc(N3CCCCC3C)s2)c1 (stereo not drawn) | / | i
CCOC(=O)c1cnc(-n2nc(C)cc2C)nc1Nc1cccc(C(C)=O)c1 | >57 | i
O=c1c2c(nc3n1CCCCC3)-c1ccccc1CC21CCCC1 | >57 | i
CC(C)(C)c1ccc(C(=O)/C=C2\NC(=O)CS2)cc1 | 3.3* | i
CC(=O)C1=C(C)OC(N)=C(C#N)C1c1ccco1 (stereo not drawn) | >57 | i
Cc1cc(C(=O)COC(=O)C2=COCCO2)c(C)n1-c1ccc2c(c1)OCO2 | >57 | i
CC(C)OCCCNc1nc2c(c(=O)n(Cc3ccccc3F)c(=O)n2C)n1C | >57 | i
O=c1c(-c2cccs2)nc2cncnc2n1Cc1ccccc1 | / | i
Cc1oc(-c2ccccc2F)nc1CS(=O)CC(=O)NCc1ccc2c(c1)OCO2 (stereo not drawn) | / | i
C=CCN1C(=O)C(C)(C)N(C(C)=O)c2ccccc21 | / | i
Cc1nn(-c2cccc(C(=O)O)c2)c(C)c1Oc1ccccc1O | >57 | i
O=C(Cn1c(=O)sc2ccccc21)Nc1nc2c(s1)CCCC2 | ? | i
Clc1ccc(CS[C@@H](Cn2ccnc2)c2ccc(Cl)cc2Cl)cc1 | / | i

Following part
SMILES | PK Bst | YjeE inh
CCc1c(C)nc2ncnn2c1N1CCCC(C(=O)NCc2ccco2)C1 (stereo not drawn) | >57 | i
O=C(C[N+]12CN3CN(CN(C3)C1)C2)c1ccc(-c2ccccc2)cc1 | / | i
Nc1ccccc1NC1=CC(=O)CC(c2ccco2)C1 (stereo not drawn) | >57 | i
COC(=O)c1ccc(N2C(=O)CC(Sc3n[nH]c(C)n3)C2=O)cc1 (stereo not drawn) | / | i
CCOc1ccccc1C1C(C#N)=C(N)Oc2cc(C)n(Cc3ccccn3)c(=O)c21 (stereo not drawn) | >57 | i
COC(=O)c1cc(OC)c(OC)cc1NC(=O)CC1CCCCC1 | >57 | i
O=C1c2cccnc2C(=O)N1c1ccccc1-c1ccccc1 | >57 | i
CC(C)CCNC(=O)CN(CC1CCCO1)C(=O)CCC(=O)Nc1nccs1 (stereo not drawn) | >57 | i
CCCOc1ccccc1Cn1c(=O)oc2ccc(C)cc21 | >57 | i
CCNc1nc(NCC)n2c(SCC(=O)O)nnc2n1 | >11 | i
c1ccsc1 | / | i
O=c1[nH]c2cc(Cl)cc(Cl)c2[nH]c1=O | / | i
O=C(O)CCn1c(SCc2ccccc2)nc2ccccc21 | / | i
CCCCCn1c(=O)[nH]c2cc(C(=O)O)ccc2c1=O | / | i
O=c1[nH]c(=S)c2[nH]c(=O)n(-c3ccccc3)c2[nH]1 | / | i
COc1cccc(-c2cc(C(=O)N3CCN(C(c4ccccc4)c4ccccc4)CC3)no2)c1 | >57 | i
COCC(C)NC(=O)c1cc(-c2ccccc2OC)on1 (stereo not drawn) | >57 | i
COc1ccc(OC)c(S(=O)(=O)NCc2cccnc2)c1 | >57 | i
CCN(CC)S(=O)(=O)c1ccc2c(c1)nc(SCn1nnc3ccccc3c1=O)n2CC | >57 | i
CC1C(O)=C(c2nc3ccccc3[nH]2)C(=N)N1c1ccccc1 (stereo not drawn) | / | i
O=C(CSc1nnc(SCc2ccc(Cl)cc2)s1)N1CCN(C(=O)c2ccco2)CC1 | / | i
O=C1C(C=NCCCN2CCOCC2)=C(O)c2ccccc21 | / | i
Cc1cc(C(=O)OCC(=O)N(C)C2CCS(=O)(=O)C2)c(C)n1-c1ccccc1 (stereo not drawn) | >57 | i
CC[C@]1(c2ccccc2)NC(=O)N(C)C1=O | / | i
COC(=O)c1ccc(C(NC(=O)OCc2ccccc2)/C(C)=C/[C@@H](C)C(=O)NCCO)cc1 (stereo partly drawn) | / | i

More compounds:
SMILES | PK Bst | YjeE inh
N=C1Sc2ccccc2C2=NCCCN12 | / | i
O=C(Nc1ccc2c(c1)OCCO2)C1CCCN(S(=O)(=O)c2cccnc2)C1 (stereo not drawn) | / | i
O=C(CSc1nc(O)c(C2CCCCC2)c(=O)[nH]1)Nc1ccc(Cl)cc1 | >57 | i
Cn1c(NC(=O)c2cc(-c3ccc4c(c3)OCO4)nc3ccccc23)cc(=O)n(C)c1=O | 4.1* | i
Cc1cc(C)nc(SCC(=O)N2CCOCC2)n1 | / | i
Cc1ccc(NC(=O)CN2C(=O)NC3(CCC(C)CC3)C2=O)c(Cl)c1 (stereo not drawn) | >57 | i
Cc1ccc(NC(=O)c2ccc(F)c(S(=O)(=O)N3CCOCC3)c2)cc1F | >57 | i
Cc1cccc(C)c1NC(=O)CSc1nnc(-c2ccoc2C)n1C | >11 | i
Cc1cc(C)c(NC(=O)CN2CCN(C)CC2)c(C)c1 | / | i
CN(CC[C@@H](Oc1ccc(-c2ccccc2)cc1)c1ccc(F)cc1)CC(=O)O | / | i
COc1ccc(NC(=O)N2CCCC3(CCN(C(=O)c4cccc(F)c4)CC3)C2)cc1 | / | i
O=C(CCNc1ccc(F)c(Cl)c1)c1ccco1 | / | i
O=C(NCc1ccco1)c1cc(-c2cccc(Cl)c2)on1 | >57 | i
O=C(Nc1nnc(CCN2CCCCC2)s1)C1CCCCC1 | >57 | i
O=C(CSc1ncnc2c1oc1ccccc12)OCc1ccccc1 | >57 | i
Cc1ccc2c(c1)c1c3n2CCN(C(=O)C2CC2)C3CCC1 (stereo not drawn) | / | i
CCOC(=O)N(C)c1ccc(C(O)(C(F)(F)F)C(F)(F)F)cc1 | >57 | i
CC(C)(C)C1=C(C#N)C(c2cc3c(cc2Br)OCO3)C(C#N)=C(N)O1 (stereo not drawn) | >57 | i
CC(NC(=O)CNC(=O)OCc1ccccc1)C(=O)N1CC(O)CC1C(=O)OCc1ccccc1 (stereo not drawn) | >57 | i
CCN(CC)CCCN1C(=O)C(=O)/C(=C(/O)c2ccc3c(c2)CC(C)O3)C1c1cccnc1 (stereo not drawn) | >26 | /
COCCNC(=O)c1sc2nc(-c3ccccc3)cn2c1C | / | i
Cc1cccc(-c2c3c(=O)n(C)c(=O)n(C)c3cn2C(C)C)c1 | >57 | i
COc1cccc(-c2nnc(SCC(=O)N3CCOCC3)o2)c1 | >57 | i
